Bioassay records from PubChem.
Polio RdRp inh: poliovirus RNA polymerase inhibition; AID 588519; P03300; % elongation, % (compound at 16.7 µg/mL); hit rate 0.66% among 150,000; poliovirus polymerase elongation, fluorescence polarization; active compounds read low; in the data active = % elongation below about 90%; also: some results filed as inactive read as strong as hits
Mtb MbtI inh: MbtI salicylate synthase inhibition; hit rate 0.89% among 100,000; purified MbtI enzyme, fluorescence intensity read-out; inhibition, %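 (about 17 µg/mL by stock and volumes)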;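 active = above 50% in both replicates, above 80% if mildly self-fluorescent; inactive = the rest, strongly fluorescent compounds included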;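 also: 0% = mean of negative and 100% = mean of positive controls; one replicate is shown; some compounds called inactive have numbers as strong as hits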
Target sequence (P9WFX0 whole entry, looked up): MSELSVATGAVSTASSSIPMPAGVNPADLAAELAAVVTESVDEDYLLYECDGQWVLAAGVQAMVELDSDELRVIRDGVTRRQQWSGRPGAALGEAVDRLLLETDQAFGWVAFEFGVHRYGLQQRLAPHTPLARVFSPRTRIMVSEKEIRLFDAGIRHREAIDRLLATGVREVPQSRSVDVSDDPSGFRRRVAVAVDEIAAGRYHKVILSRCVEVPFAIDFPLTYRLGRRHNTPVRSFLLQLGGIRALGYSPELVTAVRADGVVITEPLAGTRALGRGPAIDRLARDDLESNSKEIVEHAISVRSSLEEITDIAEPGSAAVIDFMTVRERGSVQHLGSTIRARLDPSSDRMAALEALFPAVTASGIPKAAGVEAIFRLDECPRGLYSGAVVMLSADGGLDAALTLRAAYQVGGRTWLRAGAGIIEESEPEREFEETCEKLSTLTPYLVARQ
Mtb MenB inh: inhibitors of Mycobacterium tuberculosis MenB enzyme; P9WNP5; MenB enzyme assay, absorbance read-out; some hits fall short of the stated cut; hit rate 0.43% among 100,000; inhibition, %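 (about 12 µg/mL by stock and volumes)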;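 active = mean of two replicates above 30%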;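 also: 0% = no compound and 100% = wells with inactive enzyme; the first replicate is given; strong numbers were not always called active; inactives centre near -10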
Target sequence (P9WNP5 whole entry, looked up): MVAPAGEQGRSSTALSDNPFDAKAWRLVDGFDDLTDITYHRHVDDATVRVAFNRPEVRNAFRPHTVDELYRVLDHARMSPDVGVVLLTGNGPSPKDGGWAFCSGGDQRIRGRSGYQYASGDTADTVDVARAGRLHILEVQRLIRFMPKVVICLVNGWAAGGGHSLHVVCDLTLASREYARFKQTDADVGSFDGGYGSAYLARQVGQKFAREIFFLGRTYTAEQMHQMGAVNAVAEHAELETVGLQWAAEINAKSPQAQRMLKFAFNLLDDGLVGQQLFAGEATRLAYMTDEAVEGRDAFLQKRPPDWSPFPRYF
Polio RdRp inh intensity: further read-out of Polio RdRp inh, marked with its call; % elongation; measured here: total intensity read-out; formula for this scale not given here;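 total fluorescence in place of polarization; lower means less elongation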
An asterisk follows results filed as active; nt = not tested or not shown; & = joins results of further samples.

SMILES | Polio RdRp inh | Polio RdRp inh intensity | Mtb MbtI inh | Mtb MenB inh
Nc1nc(SC(C(=O)c2c[nH]c3ccccc23)c2ccccc2)n[nH]1 (stereo not drawn) | 100 | 97 | 25 | 3
Cc1onc(-c2c(F)cccc2Cl)c1C(=O)NC(=S)NCc1cccnc1 | 101 | 101 | 10 | 0
COc1ccc(C)cc1NC(=O)C(Sc1nnnn1Cc1cccs1)c1ccccc1 (stereo not drawn) | 104 | 115 | -1 | -49
O=C(Cc1ccc(Cl)cc1)Nc1ccc2[nH]c(=O)[nH]c2c1 | 103 | 104 | -7 | -7
CCc1cc2ccccc2nc1SCC(=O)N1CCCC1 | 102 | 101 | -1 | -26
CN1C(=O)C2C(N=CN2CCCO)N(C)C1=O (stereo not drawn) | 109 | 109 | nt | -21
O=C1CCCC1Sc1nnnn1-c1ccccc1 (stereo not drawn) | 102 | 99 | -2 | -6
Clc1ccc(NCc2nnc(-c3ccccc3)o2)cc1 | 102 | 106 | 4 | 1
Cc1nn(-c2ccccc2Cl)c(Cl)c1C=Nc1ccc2[nH]c(=O)[nH]c2c1 | 109 | 112 | 2 | -20
CC(C)(C)OC(=O)N1CCCC(C(=O)CC#N)C1 (stereo not drawn) | 102 | 102 | -30 | -3
CC1(C(=O)NC2CCCCC2)CCC(=O)N1CCc1ccccc1 (stereo not drawn) | 103 | 107 | -9 | 6
Cn1c(=O)c(C(=O)CNc2ccc(S(=O)(=O)N3CCCC3)cc2)c(N)n(Cc2ccccc2)c1=O | 106 | 102 | 8 | 6
COC(=O)c1cc(C)sc1NC(=S)NCCn1cc(Cl)cn1 | 101 | 102 | 40 | -32
Cc1occc1C(=O)N1CCN(S(=O)(=O)c2ccc(F)cc2)CC1 | 102 | 91 | -8 | -5
CC(C)c1ccc(O)c(N)c1 | 103 | 106 | 51 | -12
OCCNCC12CC3CC(CC(C3)C1)C2 | 101 | 103 | -3 | 15
CC(C)Cc1nc2sc3c(c2c(=O)o1)CCCCC3 | 102 | 103 | -14 | -25
CC(C(=O)Nc1ccc(S(=O)(=O)N2CCCC2)cc1)N1CCN(c2ccccc2O)CC1 (stereo not drawn) | 97 | 92 | -29 | 11
COc1ccc(N2CCN(CCCNS(=O)(=O)c3c(C)noc3C)CC2)cc1 | 103 | 106 | -13 | 0
CCOc1ccc(C(CC(=O)O)NC(C)=O)cc1 (stereo not drawn) | 99 | 101 | 9 | 14

Random excerpt: three records from the list
SMILES | Polio RdRp inh | Polio RdRp inh intensity | Mtb MbtI inh | Mtb MenB inh
CCc1cc2ccccc2nc1SCC(=O)N1CCCC1 | 102 | 101 | -1 | -26
COC(=O)c1cc(C)sc1NC(=S)NCCn1cc(Cl)cn1 | 101 | 102 | 40 | -32
OCCNCC12CC3CC(CC(C3)C1)C2 | 101 | 103 | -3 | 15

The list goes on:
SMILES | Polio RdRp inh | Polio RdRp inh intensity | Mtb MbtI inh | Mtb MenB inh
COc1ccc(N=Nc2c(-c3ccc(OC)cc3)[nH]oc2=O)cc1 | 73 | 128 | 14 | -175
Cc1ccc(S(=O)(=O)N2CCN(C(=O)COC(=O)c3ccccc3C)CC2)c(C)c1 | 93 | 91 | 3 | -13
COc1ccc(NS(=O)(=O)c2cc(-c3cc(C)[nH]n3)ccc2C)cc1OC | 102 | 93 | 18 | 12
Fc1ccc(C(NC2CCCC2)c2nnc(-c3ccccc3)o2)cc1 (stereo not drawn) | 100 | 103 | -8 | 0
CC(c1ccccc1)N(C)CN1C(=O)c2ccccc2C1=O (stereo not drawn) | 102 | 105 | 1 | 9
CC(C)n1nc(C(N)=O)c2ccccc2c1=O | 100 | 104 | 14 | -1
COc1ccc2c(c1)nc(SCC(=O)C(C)(C)C)n2C | 98 | 103 | 53* | 0
Cc1nc(NCCCCCO)c2nnn(Cc3ccc(F)cc3)c2n1 | 102 | 103 | 0 | 22
O=c1c2ccccc2nc(-c2ccccc2)n1-c1ccccn1 | 101 | 104 | 0 | -16
Cc1cccc(-n2c(SCC(=O)NCc3ccccc3)nc3c(oc4ccccc43)c2=O)c1 | 103 | 106 | -1 | -31
O=C(c1ccccc1)c1ccccc1C(=O)N1CCc2ccccc2C1 | 101 | 99 | nt | -29
Cc1ccccc1NC(=S)N(CCN(C)C)C(C)c1ccncc1 (stereo not drawn) | 99 | 99 | 6 | -7
CC(C)(C)c1ccc(C(=O)NN)s1 | 107 | 114 | 7 | -11
CN(C(=O)c1c2c(nc3ccccc13)C(=O)N(C1CCCCC1)C2)C1CCCCC1 | 101 | 102 | -11 | -12
CNC(=O)CN1CCC(c2nc3ccccc3[nH]2)CC1 | 99 | 103 | -5 | 7
CC(C)n1c(SCc2ccccc2)nnc1C1CCCN(CC(N)=O)C1 (stereo not drawn) | 101 | 103 | -4 | 6
CSc1nnc(-c2cc(Br)ccc2NC(C)=O)c(=O)[nH]1 | 101 | 101 | 3 | 18
O=c1[nH]c(O)c(/C=N/N2CCOCC2)c(=O)[nH]1 | nt | nt | 9 | -17
C=CCn1c(NC)nc2c1c(=O)[nH]c(=O)n2C | 104 | 101 | 1 | -30
CN1CCC(N2CCCC(C(N)=O)C2)CC1 (stereo not drawn) | 99 | 101 | -6 | -13
O=C(O)c1cccc(Cl)c1C(=O)O | 99 | 100 | -13 | 6
COC(=O)N(c1ccc(OC)cc1)P1(=S)OCCC(C)O1 (stereo not drawn) | 98 | 94 | 16 | -3
CN(C)C=Nc1nc2ccccc2nc1Cl | 104 | 100 | 111 | -29
COc1ccc(C2C=C(c3ccccc3)NC(=S)S2)cc1OC (stereo not drawn) | 99 | 88 | 5 | -36
COc1ccc(-c2ccc(SC)nn2)cc1OC | 106 | 110 | 20 | -33
Cn1cc(S(=O)(=O)N2CCOCC2)cc1C(=O)N1CCN(CCOc2ccc(Cl)cc2)CC1 | 103 | 104 | -12 | -24
CC(=O)N1CCOc2ccc(S(=O)(=O)N3CCC(C(=O)NCc4ccc(Cl)cc4)CC3)cc21 | 104 | 102 | -23 | -13
CCC(C)(C)NC(=O)Cc1c[nH]c2ccccc12 | 106 | 111 | -1 | -6
COc1ccc2c(c1)nc(SCC(C)O)n2C (stereo not drawn) | 98 | 95 | 2 | nt
Cc1ccc(Cl)cc1NC(=O)COC(=O)Cc1ccc(Cl)cc1 | 101 | 106 | -13 | nt
COc1ccccc1/C=C1\C(=O)/C(=C/c2ccccc2OC)C2CCC1N2C | 101 | 103 | 0 | -98
CC1CC(C)CN(CCCNC(=O)c2ccc3c(c2)N(C)C(=O)/C(=C/c2ccccc2F)S3)C1 (stereo not drawn) | 102 | 106 | 4 | 0
Cn1c(=O)c2c(SCC(=O)N3CCCc4ccccc43)nc(-c3cccs3)nc2n(C)c1=O | 102 | 102 | -7 | -21
COC(=O)CNC(=O)C1CCN(c2nc(C)cc(-c3ccccc3)n2)CC1 | 101 | 105 | 21 | 4
O=C(Nc1ccc(F)c(F)c1)c1nc2ncccn2n1 | 101 | 102 | 5 | 22
O=C(O)CC1(O)CC(=O)N(c2ccccc2)C1=O (stereo not drawn) | 101 | 103 | -12 | 11
CCOC(=O)C1=NN(c2ccccc2)C2(C(=O)c3ccccc3C2=O)C1c1ccc(C)cc1 (stereo not drawn) | 101 | 106 | -8 | -18
COc1ccc(CNc2ccccn2)cc1OC | 103 | 105 | -18 | 1
Cc1ccc(N2C(=O)CC(c3ccc4c(c3)OCO4)C3=C2CC(C)(C)CC3=O)cc1 (stereo not drawn) | 106 | 100 | 1 | -81
CN(C)CCC(=O)c1ccco1 | 106 | 107 | nt | 7
COC(=O)N1CCCc2cc(C)ccc21 | 99 | 101 | 66 | -21
CS(=O)(=O)c1ccc(C(=O)NCCc2ccc(S(N)(=O)=O)cc2)cc1 | 104 | 111 | 2 | -18
O=C1CCC(C(=O)OCC(=O)c2ccc(Cl)cc2)=NN1 | 101 | 94 | 12 | -20
Nn1c(SCC(=O)Nc2ccccc2)nncc1=O | 98 | 99 | 3 | -57
CC(=O)N[C@@H](CCC(=O)O)C(=O)O | 99 | 102 | -10 | 3
O=c1[nH]cnc2sc3c(c12)CCCC3 | 101 | 98 | 29 | 34*
O=C1CS/C(=N/C(=O)NCC2CCCC(CNC(=O)/N=C3\NC(=O)CS3)C2)N1 (stereo not drawn) | 100 | 98 | -8 | 0
CC(C)(C)N1CSC(=S)N(Cc2ccco2)C1 | 101 | 101 | 74 | -49
CC1(C)C2CC=C(/C=C(\C#N)C(N)=O)C1C2 (stereo not drawn) | 98 | 163 | -1 | 7
CC(=O)N(CC(=O)Nc1ccc(C)cc1)c1ccccc1 | 109 | 103 | nt | -21
O=C(c1ccccc1)c1ccc2nc(-c3ccco3)c(-c3ccco3)nc2c1 | 100 | 103 | 74 | 28
CC1Sc2ccccc2NC(=O)C1C (stereo not drawn) | 103 | 103 | 8 | -12
CC(=O)Nc1ccc2c(C)cc(=O)[nH]c2c1 | 99 | 100 | nt | -6
O=C(CSc1ncccn1)N(C1CCCCC1)C1CCCCC1 | 115 | 121 | -13 | 7
COc1ccc(C(=O)Cc2nc3ccccc3[nH]2)cc1OC | 103 | 106 | 0 | -13
COc1cccc(-c2cc(C(F)(F)F)nc(-n3cccn3)n2)c1 | 103 | 105 | 103 | -25
O=C(Oc1ccc(-c2nnco2)cc1)c1ccccc1F | 104 | 107 | -10 | -25
C=CCN1C(=O)C(CC(=O)Nc2ccccc2)SC1=Nc1ccc(O)cc1 (stereo not drawn) | 104 | 103 | -25 | 5
C=CCOc1cccc(/C=C2/C(=O)NC(=S)N2C(C)=O)c1 | 103 | 108 | -8 | -9
O=C(COC(=O)c1ccccc1)NC1CC1 | 101 | 104 | -6 | nt

Next part, overlapping the part above by two compounds.
SMILES | Polio RdRp inh | Polio RdRp inh intensity | Mtb MbtI inh | Mtb MenB inh
C=CCOc1cccc(/C=C2/C(=O)NC(=S)N2C(C)=O)c1 | 103 | 108 | -8 | -9
O=C(COC(=O)c1ccccc1)NC1CC1 | 101 | 104 | -6 | nt
COc1ccccc1NC(=O)CCC(=O)N1CCSc2ccccc21 | 100 | 102 | -13 | -11
CC(C)(C)c1ccc(C(=O)n2cc(Br)cn2)cc1 | 98 | 98 | -6 | -30
CSCC(C(=O)O)N1C(=O)c2ccc(C(=O)O)cc2C1=O (stereo not drawn) | 100 | 104 | 15 | -10
COc1ccc(-c2ocnc2C(=O)NCCN2CCCCCC2)cc1 | 103 | 99 | 90 | -63
CCC1CCCCN1C(=O)COC(=O)c1ccc(O)cc1 (stereo not drawn) | 104 | 98 | 10 | nt
COC(=O)COc1ccc(Oc2nc(SC)nc(N(C)C)n2)nn1 | 101 | 102 | -12 | -4
COc1ccc(C2NC(=O)c3c(sc4c3CCC4)N2)cc1 (stereo not drawn) | 99 | 105 | 19 | -11
CCOc1cc2c(cc1CCC(=O)O)CCC2 | 99 | 100 | -8 | 2
CCN(Cc1ccncc1)C(=O)C(CO)c1ccccc1 (stereo not drawn) | 103&101 | 101&100 | -7&-23 | 4&-1
Cc1cc2ncn(S(=O)(=O)N3CCOCC3)c2cc1C | 103 | 102 | -2 | -31
O=C(CC(c1ccc(Cl)cc1)C1CCCCC1=O)c1ccc(Br)cc1 (stereo not drawn) | 107 | 105 | nt | -17
COc1cccc(CCN2CCC(CNC(=O)Cn3c(=O)oc4ccccc43)CC2)c1 | 101 | 101 | 12 | -5
CNC(=O)NNc1ccc(-c2csnn2)cc1 | 103 | 97 | 13 | 10
CCOC(=O)N1CCN(C(=O)c2ccccc2NC(=O)c2cccc(C)c2)CC1 | 101 | 103 | -11 | -16
N#CCCn1cc(/C=C/C(=O)Oc2cccc(-n3cnnn3)c2)c2ccccc21 | 104 | 107 | 30 | -55
O=C(Nc1nnc(C2CC2)s1)c1ccc2ncsc2c1 | 104 | 102 | 33 | 9
CN(C)C(=S)SCC(=O)Nc1ccccc1O | 109 | 98 | 3 | -74
O=C1c2ccccc2C(=O)N1CSc1nc2ccccc2s1 | 100 | 95 | nt | 2
COc1ccc(N2CC(NC(=O)N(CCO)Cc3ccccc3)CC2=O)cc1 (stereo not drawn) | 101 | 104 | -12 | -13
O=c1c2ccccc2nc2c3ccccc3c(SCc3ccco3)nn12 | 101 | 105 | 46 | 5

One compound at a time, as listed above. Values in the order: Polio RdRp inh, Polio RdRp inh intensity, Mtb MbtI inh, Mtb MenB inh
COc1ccccc1NC(=O)CCC(=O)N1CCSc2ccccc21 is entered as 100, 102, -13, -11
COc1cccc(CCN2CCC(CNC(=O)Cn3c(=O)oc4ccccc43)CC2)c1 is entered as 101, 101, 12, -5

Next section:
SMILES | Polio RdRp inh | Polio RdRp inh intensity | Mtb MbtI inh | Mtb MenB inh
COc1ccc(S(=O)(=O)NCC23CC4CC(CC(C4)C2)C3)cc1 | 101 | 106 | nt | -1
O=C1/C(=C/c2ccco2)CC(c2ccccc2)C/C1=C\c1ccco1 (stereo not drawn) | 101 | 177 | 23 | -72
COc1cc(C(=O)OC2CSCC2NC(=O)c2ccccc2)cc(OC)c1OC (stereo not drawn) | 106 | 115 | nt | -7
O=C(Cc1cccs1)N1CCC(Cc2ccccc2)CC1 | 101 | 102 | -11 | -15

Limited to Polio RdRp inh intensity (two entries from above):
structure,Polio RdRp inh intensity
COC(=O)N1CCCc2cc(C)ccc21,101
O=C(Nc1ccc(F)c(F)c1)c1nc2ncccn2n1,102
